From PubChem
TRPML1 blocker: inhibitors of human TRPML1 channel | activity change, negative = inhibition, % (no concentration beside the values) | 0.02% of 390,000 active | AID 624415 | TRPML1-inducible cells, Ca2+ dye fluorescence, FDSS; stronger effect = lower value; inhibition of EC80 agonist-evoked calcium signal | Q9GZU1; in the data active means activity change below about -50%; inconclusive means about -30% to -50%; inactive means above about -30%;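 further: stimulus is agonist 54-4 at its EC80 concentration; on the % scale 0 is the no-effect control and ±100 the full control effect; compound concentration not given in the record; the text of the record puts the active cut at -80%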
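TRPML1-DL cells, Tet-induced overnight (~16 h, 37 °C) at 1,500 cells/well, were loaded with Ca8 no-wash dye plus quencher for 45-90 min at room temperature. Compounds were pinned during FDSS kinetic reading; agonist 54-4 at EC80 (4 uM final) then added.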
Sfp inh: inhibitors of Bacillus subtilis Sfp phosphopantetheinyl transferase | Q9F4F7 | Biochemical Sfp PPTase activity, qHTS | Potency, µM, for inactives: max response, negative = inhibition, usual class: inhibitors | 3.5% of 310,000 active | AID 1490; active means well fitted inhibition curve with a large enough effect; inconclusive means small, poorly fitted or top-dose-only effect, or another doubt; inactive means no such curve, though single readings can be large or run the other way;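 further: the enzyme is Sfp with the accession as filed and its product quenches rhodamine fluorescence; potency means the concentration at half of the fitted maximal effect; 0% = enzyme reaction without inhibitor and -100% = no enzyme wells; top concentration of the series not given in the record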
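Fluorescence-quenching assay with 15 nM Sfp, 5 uM rhodamine-CoA and 12.5 uM BHQ-2-labelled ybbR peptide in pH 7.6 Hepes/MgCl2 buffer. Enzyme was pre-incubated with compound for 15 min at room temperature. Rate was taken from the 30-min fluorescence change (525/598 nm).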
TRPML1 agonist: agonists of human TRPML1 channel | TRPML1-expressing cells, Ca2+ dye fluorescence, FDSS; host cell line not named in the record; reference of the full effect not given here | activation, % (no concentration beside the values) | 0.12% of 410,000 active | AID 624414; in the data active = activation above about 50%; inconclusive = about 30% to 50%; inactive = below about 30%; further: 0% is about no effect; the text of the record puts the active cut at 80%
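Tetracycline-induced TRPML1-DL cells are seeded and incubated overnight before loading with a no-wash Ca2+ dye and quencher. Agonist activity is taken from the 110 s fluorescence read following compound pin-transfer on an FDSS, before EC80 54-4 challenge.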
PINK1 modulator: changes PINK1 expression | PINK1 immunofluorescence, high-content cytometry, 24 h | Potency, µM (top dose mostly 76.6 µM), without a hit: at the top dose activation (PINK1 increase), actives largely listed as activators | 0.2% of 410,000 active | AID 624263; active = well fitted activation curve with a large enough effect; inconclusive = small, poorly fitted or top-dose-only effect; inactive = flat fitted curve, though single readings scatter; cell line not stated here;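 further: potency means the concentration at half of the fitted maximal effect; % of control where 0% means no effect; nearly all actives have a fitted effect of over 65% in size; a mitochondrial uncoupler was the plate control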
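Decision-based qHTS: stable cells, 24 h exposure to five compound concentrations, CCCP as control. Fixed cells stained for PINK1 plus nuclear, mitochondrial and cell markers, cytometer read.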
TRPV1 PAM: enhances activation of the human vanilloid receptor TRPV1; Q8NER1; TRPV1-expressing cells, Fluo-8 calcium influx, capsaicin EC20 potentiation; host cell line not named in the record; control for the full effect not named in the record; potentiation, % at 8.33 µM; 0.02% of 320,000 active; AID 540277; active means potentiation above 80%; inconclusive means 30% to 80%; inactive means below 30%; further: 0% is about no effect
Target sequence (Q8NER1 whole entry, looked up): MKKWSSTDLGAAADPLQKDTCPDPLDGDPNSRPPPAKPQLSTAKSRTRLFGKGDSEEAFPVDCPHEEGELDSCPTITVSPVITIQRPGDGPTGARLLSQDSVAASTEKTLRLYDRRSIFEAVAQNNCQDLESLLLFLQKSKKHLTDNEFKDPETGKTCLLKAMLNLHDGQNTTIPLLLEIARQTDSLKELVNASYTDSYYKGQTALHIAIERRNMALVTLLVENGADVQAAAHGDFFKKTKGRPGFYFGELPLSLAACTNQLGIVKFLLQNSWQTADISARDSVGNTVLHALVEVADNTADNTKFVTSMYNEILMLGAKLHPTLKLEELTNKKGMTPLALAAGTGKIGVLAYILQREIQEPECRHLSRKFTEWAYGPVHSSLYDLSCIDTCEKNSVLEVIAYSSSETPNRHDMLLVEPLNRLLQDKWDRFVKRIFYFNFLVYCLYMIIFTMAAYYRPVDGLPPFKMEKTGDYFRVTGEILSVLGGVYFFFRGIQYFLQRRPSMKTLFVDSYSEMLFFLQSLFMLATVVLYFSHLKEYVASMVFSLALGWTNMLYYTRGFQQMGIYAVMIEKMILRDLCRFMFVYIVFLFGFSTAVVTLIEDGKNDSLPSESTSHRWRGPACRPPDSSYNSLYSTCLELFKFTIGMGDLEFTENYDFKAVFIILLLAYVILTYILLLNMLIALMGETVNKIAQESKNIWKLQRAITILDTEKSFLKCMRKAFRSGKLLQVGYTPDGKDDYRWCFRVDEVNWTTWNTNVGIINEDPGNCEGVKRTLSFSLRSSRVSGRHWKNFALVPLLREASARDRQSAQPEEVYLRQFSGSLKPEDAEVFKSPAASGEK
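Fluo-8 calcium influx in TRPV1-expressing cells, kinetic read (ex 480/em 520 nm). Compound added and read 3 min for agonist activity, followed by capsaicin at EC20 final and 2 min further read for enhancement.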
Menin MLL FP FL: inhibitors of human menin-MLL interaction, wild-type MLL peptide | Fluorescence polarization, fluorescein-MLL peptide displacement from menin | FP activity change, % at 61.4 µM | 290,000 tested, under 10 active; inconclusive = falling polarisation curve, or a change in total fluorescence; inactive = total fluorescence flat and polarisation flat or rising; no compound was filed as active; the % refers to the polarisation; negative = inhibition;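 further: % of control where 0% means no effect; inhibitors lower the polarisation; unlabelled MLL peptide was the positive control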
ClpP mod: qHTS Assay for Activators of ClpP | purified B. subtilis ClpP, FRET peptide cleavage, 20 min | Potency, µM (doses to about 57.5 µM), for the others: top-dose activity change, negative = active | 1.9% of 340,000 active | ATP-dependent Clp protease proteolytic subunit (Bacillus subtilis (strain 168)), P80244; active = well fitted falling curve with a large enough effect; inconclusive = small, poorly fitted or top-dose-only effect; inactive = no such curve, though single readings can be large or run the other way; further: potency means the concentration at half of the fitted maximal effect; the source files actives as falling curves though it sought activators and does not explain the sign; nearly all actives have a fitted effect of over 65% in size; many hits overshoot -100%
Target sequence (P80244 whole entry, looked up): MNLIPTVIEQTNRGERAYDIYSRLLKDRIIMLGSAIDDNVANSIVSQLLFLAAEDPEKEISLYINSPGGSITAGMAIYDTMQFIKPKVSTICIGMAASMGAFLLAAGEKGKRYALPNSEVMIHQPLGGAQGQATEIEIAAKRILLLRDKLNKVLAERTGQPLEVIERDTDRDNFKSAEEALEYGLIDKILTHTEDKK
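Buffer: 100 mM Tris/HCl pH8, 100 mM KCl, 0.05% low protease BSA, 2.5% glycerol, 0.01% Tween-20. ClpP 10 microg/mL final; 20 min RT; delta FRET normalized to ADEP and DMSO controls.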
An asterisk follows results filed as active; ? = inconclusive; . = no result given; & = joins results of further samples; [ ] = remark or other dose.

Order of results – ClpP mod, Sfp inh, PINK1 modulator, TRPML1 agonist, TRPML1 blocker, TRPV1 PAM, Menin MLL FP FL
1) CCOC(=O)C1=C(N)N(c2ccccc2)C2=C(C(=O)CCC2)C1c1cccnc1 (stereo not given)
  -0.3%, -3%, 2.0%, 1.6, -9, 0, 5.2
2) COC(=O)[C@H](CC(C)C)NC(=O)Cn1cnc2c(OCc3ccccc3)ncnc21
  -2.4%, ., 1.5%, 1.2, -4, ., .
3) COCCNC(=S)Nc1ccc2[nH]c(=O)[nH]c2c1
  -4.1%, -11%, -0.3%, -0.5, 12, ?, 4.3
4) C=CCC1(CC=C)CCCN1C(=O)CC1C(=O)NCCN1Cc1ccc(OC)c(OC)c1 (stereo not given)
  0.4%, 11%, 2.4%, -0.7, -3, 10, 3.4
5) CCOC(=O)c1cccc(S(=O)(=O)N(CCO)Cc2cc3cc(OC)ccc3[nH]c2=O)c1
  ?, 10%, 8.1%[38.3 µM], -0.3, -4, -3, -4.4
6) COC(=O)[C@]12CCCCC=C1N(CCC1=CCCCC1)C(=O)[C@H](CC(=O)NCCCCc1ccccc1)C2
  -5.8%, ., ?, 2.3, ., ., .
7) O=C(c1cccc(Cl)c1)N1CCC2CC1c1cc(-c3ccccc3)ccc12 (stereo not given)
  2.5%, ., 4.1%, 3.6, 6, ., .
8) Cc1cc(C)c(S(=O)(=O)NCC2CCC(C(=O)NCCc3ccccc3)CC2)c(C)c1 (stereo not given)
  -2.8%, ., 4.2%, 3.2, 26, ., .
9) COc1cc(Cn2c3ccc(NC(=O)CCc4ccccc4)cc3c(=O)n2C)ccc1F
  4.4%, ., 4.6%, 0.2, 10, ., .
10) Cc1ccc(N2C(=O)CC(NCc3ccc4c(c3)OCO4)C2=O)cc1Cl (stereo not given)
  -2.6%, -16%, -0.8%, -0.1, 16, -7, 1.2
11) CC(=O)OCC(NC(=O)C(C)NC(=O)OC(C)(C)C)C1OC(n2cc(F)c(=O)[nH]c2=O)C(OC(C)=O)C1OC(C)=O (stereo not given)
  ., 21%, ., 0.1, 3, ., -2.7
12) O=[N+]([O-])c1ccc(-c2nc(-c3cccs3)c(-c3cccs3)[nH]2)cc1
  2.0%, 4%, 5.7%, 6.5, 10, -4, ?
13) COc1ccc([C@H]2CC(=O)C=C(c3cccc(C(F)(F)F)c3)C2)cc1
  -3.8%, ., 1.7%, 4.9, -18, -5, .
14) Cc1cccc(OCC(=O)Nc2ccc(CN3CCOCC3)cc2)c1C
  1.9%, 8%, 2.1%, 0.7, 5, -3, .
15) CC(C)(C)c1ccc(SCCc2ccccn2)cc1
  -2.3%, 11%, 8.9%, 1.4, 56, ., -0.9
16) O=c1c2ccccc2nc(SCc2nnc(-c3ccccc3)o2)n1-c1ccc(F)cc1F
  25µM*, 6%, 1.1%, 2.1, 19, -7, 0.5
17) CCC(C)Nc1ccc(NC(C)CC)cc1 (stereo not given)
  -1.6%&2.1%, ., 1.9%&-0.8%, -0.6&4.5, -11, -14, .
18) Cc1cc(Br)cn2c(Cc3ccccc3)c(-c3cccc(Cl)c3)nc12
  -7.7%, ., -0.3%, 1.1, ., ., .
19) COc1ccc(N(/N=C2\Sc3ccccc3C2=O)C(C)=O)cc1
  0.0%, -2%, 9.2%, 0.3, 12, -14, 3.0
20) COc1ccccc1OCCNC(=O)c1cc(=O)[nH]c2ccccc12
  -27%, 6%, 2.6%, -0.4, -5, 2, 0.2

The last four entries of the part before are carried over, then new ones follow.
Order of results – ClpP mod, Sfp inh, PINK1 modulator, TRPML1 agonist, TRPML1 blocker, TRPV1 PAM, Menin MLL FP FL
17) CCC(C)Nc1ccc(NC(C)CC)cc1 (stereo not given)
  -1.6%&2.1%, ., 1.9%&-0.8%, -0.6&4.5, -11, -14, .
18) Cc1cc(Br)cn2c(Cc3ccccc3)c(-c3cccc(Cl)c3)nc12
  -7.7%, ., -0.3%, 1.1, ., ., .
19) COc1ccc(N(/N=C2\Sc3ccccc3C2=O)C(C)=O)cc1
  0.0%, -2%, 9.2%, 0.3, 12, -14, 3.0
20) COc1ccccc1OCCNC(=O)c1cc(=O)[nH]c2ccccc12
  -27%, 6%, 2.6%, -0.4, -5, 2, 0.2
21) CCCCSc1nc2c(cc1C#N)CCC2
  -1.8%, ?, 27%[38.3 µM], 1.4, 12, -3, 6.2
22) CCOc1ccc(OCC)c(S(=O)(=O)n2cnc(C)c2)c1
  -1.7%, 32%[activator], 1.0%, 0.4, 19, -12, 0.8
23) Nn1c(-c2ccccn2)nnc1-c1ccccn1
  -0.9%, 2%, -2.0%, 0.1, -8, ?, 3.2
24) Cc1c(NP(=O)(Oc2ccccc2F)Oc2ccccc2F)c(=O)n(-c2ccccc2)n1C
  ., 9%, 2.0%, -0.1, 51, 9, 4.7
25) CSc1nc2c(c(=O)[nH]1)C(c1cccc(Cl)c1Cl)CC(=O)N2 (stereo not given)
  ., 15%, 1.2%, 0.1, -4, 3, 2.2
26) CCC(C)NC(=O)c1c(C)oc2nc(C)nc(N3CCOCC3)c12 (stereo not given)
  0.4%, ., 9.9%, 0.6, 0, ., .
27) COc1cc(F)ccc1CN1CCC(n2nccc2NC(=O)C2CCOC2)CC1 (stereo not given)
  -6.2%, 7%, 1.5%, -0.1, 17, -2, 1.3
28) CCN(CC)C(=O)c1c(-c2ccccc2)oc2ccc(O)cc12
  ., 5%, -0.5%, 1.3, 7, 12, -3.0
29) Cc1ccc(C)c(NC(=S)NNC(=O)c2ccco2)c1
  3.6%, 15%, 0.4%[38.3 µM], 1.0, 2, -3, 1.1
30) Cc1ccc(-c2nc(=S)c3c(n2Cc2ccco2)CC(C)(C)OC3)cc1
  -2.5%, 56µM*, 3.1%, 0.7, 1, -4, 7.6
31) CC/C(=N\NC(=O)c1cc(C)oc1C)c1ccc(OC(F)F)cc1
  -2.8%, ., 6.4%, -0.2, 7, ., .
32) Cc1ccc(OCCNC(=O)c2ccc3ccccc3n2)cc1
  ., -1%, -2.6%, -0.5, -14, -2, 2.2
33) C/C(=N/NC(=O)c1ccc(Br)o1)c1cccs1
  -0.1%, 7%, 0.7%, 0.1, 5, -11, .
34) Cc1noc(C)c1C(=O)Nc1nnc(CC(C)C)s1
  ., -6%, 0.2%, -0.4, 16, 29, 0.9
35) Cc1ccc(-n2c(=O)c3ccc(C(=O)NCc4ccco4)cc3n(CC(=O)Nc3ccccc3C(F)(F)F)c2=O)cc1
  -6.4%, ., 2.0%, 0.3, -5, ., .
36) COC(=O)c1cc(OC)c(OC)cc1NC(=O)c1ccc2c(c1)CCN2S(=O)(=O)c1ccccc1
  -11%, ., -0.3%, -0.8, 7, ., .
37) CCCCn1c(N)c(N(CCOC)C(=O)C2CCN(c3ncnc4sc(C)c(C)c34)CC2)c(=O)[nH]c1=O
  ., ., 4.8%, -0.7, 20, -3, .
38) CCOC(=O)C1=C(C)OC(N)=C(C#N)C1c1cc2cc(C)ccc2nc1N1CCCCC1 (stereo not given)
  28µM*, -3%, -2.4%, 5.2, -10, -8, ?
39) CCOC(=O)CCCCCC(=O)Nc1ccc2c(c1)CC(=O)N([C@H](C)CO)C[C@@H](C)[C@H](CN(C)Cc1ccc3c(c1)OCO3)O2
  2.3%, ., 0.8%, -0.8, 39, ., .
40) COc1cccc(NC(=S)NN2C(C)CCCC2C)c1 (stereo not given)
  1.3%, 4%, -0.3%, -0.1, 0, -4, -0.7
41) O=C(COc1ccc(-c2ccccc2)cc1)N/N=C/c1cc(O)ccc1Br
  -2.2%, -16%, 1.6%, ?, -12, 5, 1.8
42) NC(=O)c1ncn([C@@H]2O[C@H](CNS(=O)(=O)c3cc4ccccc4s3)[C@@H](O)[C@H]2O)n1
  1.1%, ., 1.1%, -0.5, 22, ., .
43) C/C(=N\NC(=O)c1cccnc1)c1ccc(OC2OCCOC2Oc2ccc(/C(C)=N/NC(=O)c3cccnc3)cc2)cc1 (stereo not given)
  ., -8%, -2.3%, 2.3, -7, 12, -0.8
44) Cc1cccc(OCCNC(=O)c2ccc(Cl)c(S(=O)(=O)NCc3cccnc3)c2)c1
  0.3%, ., 2.9%, 0.8, 0, 15, .
45) CCN(CC)CCNC(=O)c1ccc(NC(=O)c2ccccc2-c2ccc(C(F)(F)F)cc2)cc1
  ., -10%, -3.6%, 0.7, 14, 6, -11
46) O=C(c1cccc(Br)c1)N1CCN(Cc2cc(=O)n3nc(-c4ccccc4)sc3n2)CC1
  -2.7%, ., 1.5%, -0.2, 16, ., .
47) CC(C)c1ccc(NC2CCCN(C(=O)c3ccncc3)C2)cc1 (stereo not given)
  -0.1%, 15%, 0.2%, -0.1, -9, -5, .
48) Cc1ccc(S(=O)(=O)N2CCCCC2)cc1C(=O)N1CCN(CCO)CC1
  0.2%, ., 1.5%, 0.6, -9, 26, .
49) CCn1cc(C(=O)NCCCOC)c(=O)c2cc(S(=O)(=O)N3CCCC3)ccc21
  1.8%&-4.1%, 13%, 1.1%&3.2%, -0.4&-0.6, 11&20, -4, .
50) CCOC(=O)c1ccc(NNC(=O)CC)c([N+](=O)[O-])c1
  0.4%, 13%, -0.2%, 0.2, -1, -10, 0.5
51) CC(=O)Nc1cccc(NC(=O)CSc2nnc(Cc3cccn3C)n2-c2ccc(C)cc2)c1
  17%, ?, 1.5%[38.3 µM], 0.0, 8, 9, 7.1
52) COc1cc(OCc2ccccc2)c(CC(=O)O)c([N+](=O)[O-])c1
  -4.3%, ., 0.5%, 3.4, 18, ., .
53) ONC(=Nc1ccccc1)C(=Nc1ccccc1)NO
  -3.8%, -2%, -1.5%, 0.4, -16, 5, 1.9
54) N#Cc1ccccc1NC(=O)c1cc(=O)c2ccccc2o1
  ., -18%, -0.6%, -0.2, -15, -1, -3.5
